CHT allo act = allosterically activates the human high affinity choline transporter; B-score at 10 µM; CHT-expressing cells, membrane potential dye, choline EC20; stronger effect = higher value; LV-AA mutant CHT in HEK293 cells; Q9GZV3; 310,000 compounds, 0.49% hits;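 active means initial fluorescence not abnormally high and integrated response B-score, plate-corrected, over 3 SD above library mean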
Target sequence (Q9GZV3 whole entry, looked up): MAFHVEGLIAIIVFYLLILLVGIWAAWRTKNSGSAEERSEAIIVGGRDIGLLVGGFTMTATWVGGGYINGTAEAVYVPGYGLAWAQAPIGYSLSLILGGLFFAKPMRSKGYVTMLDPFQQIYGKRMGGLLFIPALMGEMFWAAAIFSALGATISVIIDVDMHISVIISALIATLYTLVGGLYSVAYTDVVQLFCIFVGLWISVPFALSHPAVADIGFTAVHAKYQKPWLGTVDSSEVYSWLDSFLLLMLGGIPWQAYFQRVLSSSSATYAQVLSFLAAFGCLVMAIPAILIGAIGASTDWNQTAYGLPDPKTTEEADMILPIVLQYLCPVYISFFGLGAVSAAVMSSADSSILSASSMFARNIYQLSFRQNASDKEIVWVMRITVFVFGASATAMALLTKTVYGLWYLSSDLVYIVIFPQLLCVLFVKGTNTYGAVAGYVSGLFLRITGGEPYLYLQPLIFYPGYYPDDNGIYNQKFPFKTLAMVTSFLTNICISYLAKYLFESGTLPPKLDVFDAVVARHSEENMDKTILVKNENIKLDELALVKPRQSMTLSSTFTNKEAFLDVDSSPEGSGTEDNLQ
Calls only; i = inactive. An excerpt; most or all hits stand in other tables.

A first look:
nr	SMILES	CHT allo act
1	COc1ccc2nc(N3CCCCC3)c(C#N)cc2c1	i
2	COc1ccc(S(=O)(=O)NC(CC(=O)NCC2CCCO2)c2ccco2)cc1 (stereo not drawn)	i

The whole of this part, repeating the preview:
nr	SMILES	CHT allo act
1	COc1ccc2nc(N3CCCCC3)c(C#N)cc2c1	i
2	COc1ccc(S(=O)(=O)NC(CC(=O)NCC2CCCO2)c2ccco2)cc1 (stereo not drawn)	i
3	COc1ccc(C(=O)Nc2ccc(N3CCN(C(=O)c4cccs4)CC3)cc2)cc1Br	i
4	CCOc1ccc(/C=N/OCC(=O)NCc2ccco2)cc1	i
5	COc1ccc(C)cc1S(=O)(=O)N(C)CC(=O)Nc1ccccc1	i
6	CN(C1CCCCC1)S(=O)(=O)c1ccc(NC(=O)CCC(=O)O)cc1	i
7	O=C(Nc1nccs1)c1ccc(S(=O)(=O)N2CCCCC2)cc1	i
8	Cc1ccc(NC(=O)C2OCCc3ccccc32)cc1Cl (stereo not drawn)	i
9	Cc1cc(N2CCc3ccccc32)n2ncnc2n1	i
10	CCC1CCCCN1C(=O)CSc1nnc(-c2ccc(OC)cc2)o1 (stereo not drawn)	i
11	Cc1nc(N2CCC(C)CC2)c2nnn(Cc3ccccc3)c2n1	i
12	O=C(O)CCC(=O)NNC(=O)COc1ccc2ccccc2c1Br	i
13	COc1ccc(N2CCN(CC(=O)N3N=CCC3c3ccccc3)CC2)cc1 (stereo not drawn)	i
14	COc1ccccc1CN1CC(C(=O)N2CCC(OC)CC2)CCC1=O (stereo not drawn)	i
15	COc1ccc(OC)c(/C=N/NC(=O)c2cc3c(OC)cc(OC)cc3[nH]2)c1	i
16	O=C(Nc1nnc(CCN2CCCCC2)s1)c1ccc(Br)cc1	i
17	O=C(COc1ccccc1Cl)Nc1ccc(CN2CCOCC2)cc1	i
18	CCOC(=O)c1cc(NC(=O)Nc2ccc(Br)cc2)c(C)nc1C	i
19	C=CCC(C)(NCc1ccccc1)c1ccco1 (stereo not drawn)	i
20	COc1cc(C2NC(=O)NC(C)=C2C(=O)OC(C)(C)C)ccc1OCC(N)=O (stereo not drawn)	i
21	Cc1c(C(=O)O)cccc1N1C(=O)Nc2ccccc2N1O	i
22	COc1ccc(C(=O)N2CCN(c3ccc(N4CCOCC4)nn3)CC2)cc1OC	i
23	COCCCNC(=O)c1ccc([N+](=O)[O-])c(Cl)c1	i
24	COc1cccc(C2C(C#N)=C(N)N(N(C)C)C3=C2C(=O)CC(C)(C)C3)c1 (stereo not drawn)	i
25	N=c1ccn(Cc2c(Cl)cccc2Cl)cc1	i
26	Cc1ccc(C(=O)COC(=O)C2CC3CCCC(C2)C3=O)cc1[N+](=O)[O-] (stereo not drawn)	i
27	O=C(COC(=O)C1C2CC3OC(=O)C1C3C2)Nc1ccc(F)cc1 (stereo not drawn)	i
28	Cc1ccc(C2(c3ccc(C)cc3)CC2C(=O)NCc2cccnc2)cc1 (stereo not drawn)	i
29	O=C(Nc1ccc(S(=O)(=O)N2CCCC2)cc1)C1CC(=O)N(c2ccccc2)C1 (stereo not drawn)	i
30	COC(=O)CN(n1cnnc1)S(=O)(=O)c1ccccc1Cl	i
31	NS(=O)(=O)c1ccc(NC(=O)/C=C/c2ccc(S(=O)(=O)NCc3ccco3)cc2)cc1	i
32	O=C(COc1ccc2c(c1)CCC2)N1CCc2ccccc21	i
33	Cc1ccc(CNC(=O)c2ccccc2NC(=O)CN2CCN(C)CC2)cc1	i
34	COc1cccc(SCc2noc(C(=O)NCC3CC3)c2C(=O)NCC2CC2)c1	i
35	CC(C)COC(=O)Nc1ccccc1C(=O)N1CCOCC1	i
36	CCN(CC(=O)Nc1ccc(OC)cc1)C(=O)c1ccc(NS(=O)(=O)c2ccc(C(C)=O)cc2)cc1	i
37	O=C(c1ccc(Cn2cc(Br)cn2)o1)n1cccn1	i
38	N#Cc1ccc(NC(=O)c2cc(=O)c3ccccc3o2)cc1	i
39	Cn1c(=O)c2c(nc(OC/C=C/c3ccccc3)n2C)n(C)c1=O	i
40	CCCCn1c(N)c(N(CC(C)C)C(=O)C2CCN(S(=O)(=O)c3ccccc3)CC2)c(=O)[nH]c1=O	i
41	CCN(CC)C(=O)CSc1nnc(CSc2ncccn2)n1C	i
42	COc1ccc(C(=O)Nc2ccc(C(=O)OCC(=O)c3ccccc3)cc2)cc1	i
43	CCCOc1ccc(C(=O)Nc2ccc(S(=O)(=O)Nc3onc(C)c3C)cc2)cc1	i
44	O=C(Cn1c(-c2ccccc2)noc1=O)Nc1ccc(N2CCCCCC2)cc1	i
45	CSc1ccc(S(=O)(=O)NCC(=O)OCC(=O)N2CC(C)CC(C)C2)cc1[N+](=O)[O-] (stereo not drawn)	i
46	c1cncc(-c2nc3ccccn3c2Nc2ccc3c(c2)OCCO3)c1	i
47	O=C(CSc1ccc(-c2ccco2)nn1)Nc1ccccc1	i
48	COC(=O)CC1=NN(c2ccccc2)C(=O)/C1=C\c1ccc(OC)cc1	i
49	CCCn1nnc(NC(=O)c2ccc(OC)cc2)n1	i
50	O=c1ccc(OCCOc2ccccc2)nn1-c1ccccc1	i
51	O=C(O)C1C2C=CC(C2)C1C(=O)Nc1nccs1 (stereo not drawn)	i
52	CCCOC(=O)COC(=O)c1ccccc1NC(=O)c1ccccc1	i
53	Cc1ccccc1Cn1c(=O)n(C)c(=O)c2sccc21	i
54	COc1ccc(OC)c(N(CC(=O)NC2CCCCCC2)S(=O)(=O)c2ccc(C)cc2)c1	i
55	C/C(=N\NC(=O)CSCc1ccc([N+](=O)[O-])cc1)c1ccccc1	i
56	COc1ccc([N+](=O)[O-])cc1N(CC(O)CN1CCOCC1)S(=O)(=O)c1ccccc1 (stereo not drawn)	i
57	COc1ccc(OCCCC(=O)Nc2cccc([N+](=O)[O-])c2)cc1	i
58	O=C(c1ccco1)N1CCC(n2nnc3ccccc32)CC1	i
59	O=C(Nc1ccccc1-c1nnn(CC(=O)N2CCCc3ccccc32)n1)c1ccco1	i
60	CC(C)c1ccc(NC(=O)C2C3C=CC(CC3)C2C(=O)O)cc1 (stereo not drawn)	i

Seven entries drawn at random from the list so far:
nr	SMILES	CHT allo act
41	CCN(CC)C(=O)CSc1nnc(CSc2ncccn2)n1C	i
46	c1cncc(-c2nc3ccccn3c2Nc2ccc3c(c2)OCCO3)c1	i
48	COC(=O)CC1=NN(c2ccccc2)C(=O)/C1=C\c1ccc(OC)cc1	i
53	Cc1ccccc1Cn1c(=O)n(C)c(=O)c2sccc21	i
45	CSc1ccc(S(=O)(=O)NCC(=O)OCC(=O)N2CC(C)CC(C)C2)cc1[N+](=O)[O-] (stereo not drawn)	i
57	COc1ccc(OCCCC(=O)Nc2cccc([N+](=O)[O-])c2)cc1	i
59	O=C(Nc1ccccc1-c1nnn(CC(=O)N2CCCc3ccccc32)n1)c1ccco1	i

Ordered by formula weight (lowest first): some entries from above.
nr	SMILES	CHT allo act
53	Cc1ccccc1Cn1c(=O)n(C)c(=O)c2sccc21	i
47	O=C(CSc1ccc(-c2ccco2)nn1)Nc1ccccc1	i
60	CC(C)c1ccc(NC(=O)C2C3C=CC(CC3)C2C(=O)O)cc1 (stereo not drawn)	i
56	COc1ccc([N+](=O)[O-])cc1N(CC(O)CN1CCOCC1)S(=O)(=O)c1ccccc1 (stereo not drawn)	i

Further structures
nr	SMILES	CHT allo act
61	O=C(O)c1ccc(CSc2nnc(Cc3ccccc3)o2)cc1	i
62	Cc1sc(NC(=O)CN(Cc2ccccc2)C(=O)C2CC2)c(C(N)=O)c1C	i
63	CC(C)c1ccc(N(CC(=O)NCc2ccc(F)cc2)C(=O)c2csnn2)cc1	i
64	CCOC(=O)NC(=O)COC(=O)CNC(=O)c1ccc(OCC)c(OCC)c1	i
65	CCOC(=O)C1=C(C)N(C)C(=O)NC1c1ccc(C)s1 (stereo not drawn)	i
66	Brc1ccc(-c2nc(N/N=C/c3cccnc3)c3ccccc3n2)cc1	i
67	CCc1ccccc1NC(=O)C(C)n1nc([N+](=O)[O-])c(Br)c1C (stereo not drawn)	i
68	CCc1ccc(N=C2NC(=O)/C(=C/c3cc(OC)c(OC)c(OC)c3)S2)cc1	i
69	COc1cccc(NS(=O)(=O)c2ccc3[nH]cc(C(=O)NCCN4CCOCC4)c(=O)c3c2)c1	i
70	Cc1cc(C(=O)Nc2ccc(F)cc2F)on1	i
71	CCOc1cc(C(=S)N2CCOCC2)ccc1OS(=O)(=O)c1ccccc1[N+](=O)[O-]	i
72	Cc1nc(SCC(=O)N2CCC(Cc3ccccc3)CC2)[nH]c(=O)c1C	i
73	S=c1nc(C2COc3ccccc3O2)[nH][nH]1 (stereo not drawn)	i
74	CCN1CCN(C(=O)Cn2c(=O)sc3ccccc32)CC1	i
75	CCn1c(SCC(=O)N(C)C2CCS(=O)(=O)C2)nnc1-c1cccs1 (stereo not drawn)	i
76	O=C(Nc1ccc(C(=O)Oc2ccccc2)c(O)c1)c1ccccc1	i
77	CCC1CCCCN1C(=O)CN1C(=O)CSC1=O (stereo not drawn)	i
78	COc1ccccc1C(=O)NC(=O)COC(=O)c1nc2nc(C)cc(C)n2n1	i
79	COc1cc(OC)c(C(=O)Oc2ccc3c(c2)OCO3)cc1OC	i
80	CCCCCCCCSc1nnc(/N=C/N(C)C)s1	i
81	CCN(CC)C(=O)NC1CC(=O)N(c2ccc(OC)cc2)C1 (stereo not drawn)	i
82	Cc1c(C(=O)C(=O)N2CCCc3ccccc32)c2ccccc2n1C	i
83	Cc1nn(CC(=O)c2ccccc2)c(=O)c2nn(-c3ccccc3F)c(C)c12	i
84	Cc1cnc(C(=O)Nc2ccc(C)c(S(=O)(=O)N(C)C)c2)cn1	i
85	O=C(COC(=O)c1ccc(-c2nnc(-c3ccccc3)o2)cc1)c1ccccc1	i
86	CCOC(=O)[C@H]1[C@H]2COc3ccc(Cl)cc3[C@@H]2N2C(=O)c3cc(Br)ccc3NC(=O)[C@@]12C	i
87	CCOC(=O)C1=C(C)N(C)C(=O)NC1c1cccc(O)c1 (stereo not drawn)	i
88	CCCC(=O)N1CCN(S(=O)(=O)c2cc(Cl)ccc2OC)CC1	i
89	CCOc1ccccc1C(=O)NC1CCNCC1	i
90	COc1cc(OC)c2c(C)cc(=O)oc2c1C(CCN1CCOCC1)c1ccc2c(c1)OCO2 (stereo not drawn)	i
91	CCOC(=O)c1cnc(-c2ccc(C(F)(F)F)cn2)[nH]c1=O	i
92	Cc1ccc2nc(NC(=O)c3ccc(Br)o3)sc2c1	i
93	COc1ccc(Cc2nc3ccc(S(N)(=O)=O)cc3[nH]2)cc1OC	i
94	Cc1cc(C)cc(-n2nnc(C(=O)NCc3ccc(Cl)cc3)c2N)c1	i
95	O=C1NCCN1Cc1cccc(Cl)c1	i
96	Cc1ccc2cc(CN(CCN(C)C)C(=S)Nc3ccccc3)c(=O)[nH]c2c1C	i
97	Cc1ccc(S(=O)(=O)c2ccc(-n3nc(C)cc3N)cc2)cc1	i
98	COc1ccc(CCNC(=O)c2ccccc2)cc1	i
99	O=C(Nc1cccnc1)c1cc(-c2ccc(Cl)cc2)on1	i
100	Cc1ccc(NC(=O)CSCC(=O)N2CCOCC2)cc1	i
101	CCC(=O)Nc1cc(C(=O)NCC2CCCN2CC)c(OC)cc1N(C)C (stereo not drawn)	i
102	O=C(NCCS(=O)(=O)N1CCN(c2ccccc2F)CC1)C1CC(=O)N(c2ccc(F)cc2)C1 (stereo not drawn)	i
103	N#Cc1c(N)n(-c2ccccc2)c(=O)c2cc([N+](=O)[O-])ccc12	i
104	Cc1nc2ccc(S(=O)(=O)NCC(=O)N3CCN(c4ccccc4)CC3)cc2s1	i
105	O=C(NC1C=CS(=O)(=O)C1)c1sc2ccccc2c1Cl (stereo not drawn)	i
106	CSc1cccc(CN2CCCC(CNC(=O)c3ccco3)C2)c1 (stereo not drawn)	i
107	O=C(NC(=S)NCCC1=CCCCC1)c1cncc(Br)c1	i
108	COc1ccc(NS(=O)(=O)c2ccc(C)c(C(=O)N(C)CC(=O)Nc3cccc(OC)c3)c2)cc1	i
109	CCn1cc(C(=O)NCc2ccco2)c(=O)c2cc(F)c(N3CCN(C(=O)c4ccco4)CC3)cc21	i
110	CN=C1S/C(=C\c2ccc(N3CCOCC3)cc2C)C(=O)N1C	i
111	CCCNC(=O)Cn1cnc([N+](=O)[O-])n1	i
112	Cc1noc(C)c1N=Nc1ccc(Br)cc1C(=O)O	i
113	O=C(NCc1ccco1)/C(=C\c1cccc([N+](=O)[O-])c1)NC(=O)c1ccco1	i
114	COc1ccccc1NC(=O)CSc1ccc2nnc(-c3ccc(C)cc3)n2n1	i
115	CCOC(=O)c1c(C)n(C)c2ccc(OCC(O)Cn3nc(C)c(Br)c3C)cc12 (stereo not drawn)	i
116	O=C(CCCSc1nnc(Nc2ccccc2F)s1)N1CCOCC1	i
117	Cc1cc(C(=O)N2CCCC(N3CCN(c4ccccc4C)CC3)C2)nc(C)n1 (stereo not drawn)	i
118	COC(=O)c1cc(S(=O)(=O)Nc2ccc(C)c(F)c2)c[nH]1	i
119	N#Cc1c(NC(=O)c2ccc(Br)o2)n(-c2ccccc2)c2nc3ccccc3nc12	i
120	CCOC(=O)C1=C(c2ccccc2)O/C(=C(/C(=O)OC)C(F)(F)F)S1	i

Next section.
nr	SMILES	CHT allo act
121	CCC1=Nc2cc(C(=O)NCCN3CCOCC3)ccc2Sc2ccc(C)cc21	i
122	Cc1cc2cc(CCNC(=O)c3ccc(S(=O)(=O)N4CCOCC4)cc3)c(=O)[nH]c2cc1C	i
123	COc1ccc(CC(=O)OCN2C(=O)c3ccccc3C2=O)cc1OC	i
124	Cc1ccc(NC(=O)N2CCCC2C(=O)Nc2ccc3c(c2)OCO3)cc1 (stereo not drawn)	i
125	O=[N+]([O-])c1ccc(Oc2ccc(/C=N/O)cc2)nc1	i
126	COc1cc(NC(=O)c2cccs2)ccc1NC(=O)c1ccccc1Cl	i
127	O=C(NCc1ccc2c(c1)OCO2)c1ccc(Cl)s1	i
128	C=CCc1c(C)nc2ccc(C(=O)OCC)cc2c1Cl	i
129	COc1ccc(Sc2cnn(-c3ccccc3)c(=O)c2Cl)cc1	i
130	CC(=O)c1c(-c2ccccc2)c2ccccc2[nH]c1=O	i
131	O=c1c(CN2CCN(Cc3ccccc3F)C(CCO)C2)coc2ccccc12 (stereo not drawn)	i

Bioassay records (PubChem BioAssay)
